# Assay outcomes deposited in PubChem by National Center for Advancing Translational Sciences (NCATS).
# ClpP mod = qHTS Assay for Activators of ClpP; ATP-dependent Clp protease proteolytic subunit (Bacillus subtilis (strain 168)), P80244; purified B. subtilis ClpP, FRET peptide cleavage, 20 min; Potency, µM (highest dose often 57.5 µM), without a hit: at the highest dose activity change, negative = active; actives 1.9% (n = 340,000); AID 651965, 2013; active = well fitted falling curve with a large enough effect; inconclusive = small, poorly fitted or top-dose-only effect; inactive = no such curve, though single readings can be large or run the other way; also: the source files actives as falling curves though it sought activators and does not explain the sign; nearly all actives have a fitted effect of over 65% in size; many hits overshoot -100%
# Target sequence (P80244 whole entry, looked up): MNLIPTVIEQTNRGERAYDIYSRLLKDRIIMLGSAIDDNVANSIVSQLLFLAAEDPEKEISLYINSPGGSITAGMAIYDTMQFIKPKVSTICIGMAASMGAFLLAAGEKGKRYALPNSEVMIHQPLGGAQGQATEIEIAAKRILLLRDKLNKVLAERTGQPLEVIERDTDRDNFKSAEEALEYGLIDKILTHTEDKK
#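 Purified B. subtilis ClpP, 10 microg/mL final in Tris/HCl pH8 with KCl, BSA, glycerol and Tween-20, cleaved an Abz/nitrotyrosine-quenched decapeptide. Fluorescence (ex 320, em 430) was read at 0 and 20 min at room temperature. Delta was normalized to 5.8 microM ADEP and DMSO/no-enzyme controls.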
# gsp ag = gsp mutant agonism | actives 0.13% (n = 340,000) | AID 624287 | gsp mutant cells, cAMP HTRF, 30 min; control for the full effect not named in the record | Potency, µM (titrated, usually from 76.9 µM), inactives show at the top dose activation (cAMP increase), usual class: activators; active = well fitted activation curve with a large enough effect; inconclusive = small, poorly fitted or top-dose-only effect, or another doubt; inactive = no such curve, though single readings can be large or run the other way; cell line not stated here;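 also: phosphodiesterase inhibitor Ro 20-1724 added with compounds to block cAMP breakdown; nearly all actives have a fitted effect of over 60% in size; about a fifth of the inactives were tested at one dose only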
#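 Cells in DMEM/10% FBS with G418 were pretreated with compounds in DMSO plus […] (300 uM stock) for 30 min at 37C. cAMP was measured by HTRF (cAMP-d2 plus anti-cAMP antibody-K) after 30 min at room temperature.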
# Active calls of the source: *; u = inconclusive; [ ] = remark or other dose. Potency is read from the fitted curve at half-maximal effect. An excerpt; the hit share may differ from the screen's.
SMILES,ClpP mod,gsp ag
COc1ccc(S(=O)(=O)Nc2ccc3c(c2)C(=O)N([C@H](C)CO)C[C@H](C)[C@@H](CN(C)C(=O)Nc2ccc(C(F)(F)F)cc2)OCCCC[C@H](C)O3)cc1,1.3%,-18.3%
O=C1NC(Cc2ccccc2)c2nc3cc(F)c(F)cc3c(=O)n2-c2ncccc21 (centres undefined),-2.7%,5.8%
Nc1ccn([C@@H]2O[C@H](CNS(=O)(=O)c3cc4ccccc4s3)[C@@H](O)[C@H]2O)c(=O)n1,1.1%,-14.8%
Cc1cn([C@H]2C[C@H](O)[C@@H](CNCc3ccc(CN(C)S(C)(=O)=O)o3)O2)c(=O)[nH]c1=O,1.7%,15.5%
O=C(Nc1ccc(Br)cc1F)c1nc[nH]c1C(=O)N1CCc2ccccc2C1,-4.2%,-9.7%
CNC(=O)C[C@H]1C(=O)N(c2ccc(Br)cc2)C[C@@H]1C,0.2%,-5.7%
CCCCCC(=O)N1C[C@H](n2cc(C3CC3)nn2)[C@@H](O)C[C@@H]1c1ccc(OC)cc1,0.6%,2.8%
COc1ccc(S(=O)(=O)N(C)C[C@@H]2OCc3cnnn3CCCC(=O)N([C@@H](C)CO)C[C@H]2C)cc1,0.3%,13.1%
COCOCCn1cc(CN2CCS(=O)(=O)N(Cc3ccc(-c4ccc(Cl)nc4)cc3)C(C)C2=O)nn1 (centres undefined),-0.1%,-30.3%[inhibitor]
Cc1ccc(-c2ccc(CN3C(C)C(=O)N(Cc4cn(CC5CCCCC5)nn4)CCS3(=O)=O)cc2)cc1 (centres undefined),-1.9%,0.7%
O=C1NC(Cc2ccc(O)cc2)c2nc3cc(F)c(F)cc3c(=O)n2-c2ncccc21 (centres undefined),u,22.5%
C[C@H](NC(=O)c1ncn2c1C(=O)NC[C@H]2C)C(=O)OC(C)(C)C,-1.2%,u
C[C@@H]1CCCCO[C@H](CN(C)C(=O)Nc2cccc3ccccc23)[C@@H](C)CN([C@H](C)CO)C(=O)c2cc(N(C)C)ccc2O1,-14.0%,-11.8%
C[C@H]1CN([C@@H](C)CO)S(=O)(=O)c2ccc(-c3cncnc3)cc2O[C@H]1CN(C)C(=O)NC1CCCC1,0.3%,u
CC(C)COC(=O)N(C)C[C@@H]1OCc2cn(nn2)CCCC(=O)N([C@@H](C)CO)C[C@H]1C,-0.7%,u
COc1ccc(NC(=O)c2nc[nH]c2C(=O)N(C)CCO)cc1,-2.0%,25.3%
CC1C(=O)N(Cc2cn(CCC3OCCO3)nn2)CCS(=O)(=O)N1Cc1ccc(-c2ccc(F)nc2)cc1 (centres undefined),0.5%,u
CC1CCN(C(=O)c2ncn3c2c(=O)[nH]c2ccc(Br)cc23)CC1,-3.7%,22.6%
C[C@@H]1CN([C@@H](C)CO)C(=O)CCCn2nncc2CO[C@H]1CN(C)C(=O)c1ccc2ccn(C)c2c1,-24.5%,u
COCCNC(=S)N(C)[C@H]1C[C@H]2c3cc(N4CCN(C)CC4)ccc3CCN2C(=O)[C@H]1[C@H](C)O,-1.1%,-2.7%
O=C(Nc1ccccc1F)c1nc[nH]c1C(=O)NCc1ccccc1,179.5%,-24.7%
C#Cc1cc(N2CCN(C(=O)c3ccoc3)CC2)n2nc(-c3cccc(Cl)c3)cc2n1,4.2%,8.1%
C[C@H](NC(=O)c1ncn2c1C(=O)N[C@@H](C)C2)c1ccccc1,-2.0%,11.9%
C[C@@H]1CN([C@H](C)CO)C(=O)c2cc(Br)cnc2O[C@H]1CN(C)Cc1ccccc1,0.2%,u
COc1cccc(CN(C)C[C@H]2OCc3cnnn3CCCC(=O)N([C@H](C)CO)C[C@@H]2C)c1,0.6%,-42.8%

# Eleven compounds from above, arranged by length of the SMILES, lowest first:
SMILES,ClpP mod,gsp ag
O=C(Nc1ccccc1F)c1nc[nH]c1C(=O)NCc1ccccc1,179.5%,-24.7%
CNC(=O)C[C@H]1C(=O)N(c2ccc(Br)cc2)C[C@@H]1C,0.2%,-5.7%
CC1CCN(C(=O)c2ncn3c2c(=O)[nH]c2ccc(Br)cc23)CC1,-3.7%,22.6%
C[C@H](NC(=O)c1ncn2c1C(=O)NC[C@H]2C)C(=O)OC(C)(C)C,-1.2%,u
O=C1NC(Cc2ccccc2)c2nc3cc(F)c(F)cc3c(=O)n2-c2ncccc21 (centres undefined),-2.7%,5.8%
O=C1NC(Cc2ccc(O)cc2)c2nc3cc(F)c(F)cc3c(=O)n2-c2ncccc21 (centres undefined),u,22.5%
C[C@@H]1CN([C@H](C)CO)C(=O)c2cc(Br)cnc2O[C@H]1CN(C)Cc1ccccc1,0.2%,u
CCCCCC(=O)N1C[C@H](n2cc(C3CC3)nn2)[C@@H](O)C[C@@H]1c1ccc(OC)cc1,0.6%,2.8%
COCCNC(=S)N(C)[C@H]1C[C@H]2c3cc(N4CCN(C)CC4)ccc3CCN2C(=O)[C@H]1[C@H](C)O,-1.1%,-2.7%
C[C@@H]1CCCCO[C@H](CN(C)C(=O)Nc2cccc3ccccc23)[C@@H](C)CN([C@H](C)CO)C(=O)c2cc(N(C)C)ccc2O1,-14.0%,-11.8%
COc1ccc(S(=O)(=O)Nc2ccc3c(c2)C(=O)N([C@H](C)CO)C[C@H](C)[C@@H](CN(C)C(=O)Nc2ccc(C(F)(F)F)cc2)OCCCC[C@H](C)O3)cc1,1.3%,-18.3%

# New compounds follow
SMILES,ClpP mod,gsp ag
COc1ccc(CN2C(=O)C(CC(=O)NCCCN(C)C)CC(C(=O)N(C)C)=C2C)cc1 (centres undefined),2.3%,15.1%
COc1ncnc2c1ncn2CCCN1CCN(C(=O)C2CC2)CC1,0.9%,18.8%
COc1ccc([C@H]2C[C@@H](O)[C@H](n3cc(COC(=O)c4ccccc4)nn3)CN2C(=O)c2cccs2)cc1,1.9%,-11.5%
CC1=C(C(=O)N(C)C)CC(CC(=O)NC(c2ccccc2)c2ccccc2)C(=O)N1Cc1ccccc1 (centres undefined),-2.0%,-5.3%
Cc1cccc(NC(=O)c2ncn3c2C(=O)N(C)CC3)c1,0.6%,u
CCCCN1C[C@H](C)[C@@H](CC(=O)Nc2ccc(OC)cc2)C1=O,-1.2%,-4.0%
CCCCCCN1C[C@@H](n2cc(C3CC3)nn2)[C@H](O)C[C@@H]1c1ccc(OC)cc1,-17.8%,-37.8%[inhibitor]
C[C@H]1CN([C@@H](C)CO)C(=O)CCCn2nncc2CO[C@H]1CN(C)C(=O)c1cc(-c2ccccc2)on1,0.0%,-10.9%
C[C@@H]1CN([C@H](C)CO)C(=O)c2cc(Br)cnc2O[C@@H]1CN(C)C(=O)c1ccccc1,0.4%,21.5%
COc1ncnc2c1ncn2CCCNC1CCN(Cc2ccccc2)CC1,0.1%,2.2%
COc1ccc(CN2C(=O)C(CC(=O)NC3CCCCC3)CC(C(=O)N(C)C)=C2C)cc1 (centres undefined),-1.2%,18.4%
C[C@H]1Cn2cnc(C(=O)N[C@@H](Cc3c[nH]c4ccccc34)C(=O)OC(C)(C)C)c2C(=O)N1,-0.9%,-4.8%
CC1C(=O)N(Cc2cn(CC3CCCCC3)nn2)CCS(=O)(=O)N1Cc1ccc(-c2ccc(Cl)cc2)cc1 (centres undefined),-3.6%,u
C[C@@H]1CN([C@@H](C)CO)C(=O)CCCn2cc(nn2)CO[C@H]1CN(C)S(=O)(=O)c1ccc2c(c1)OCCCO2,0.7%,-21.5%
CCN(CC)C(=O)C1=C(C)N(Cc2ccc(F)cc2)C(=O)C(CC(=O)NCCN2CCOCC2)C1 (centres undefined),-1.1%,8.0%
CCN(CC)C(=O)C1=C(C)N(CCC2=CCCCC2)C(=O)C(CC(=O)NCc2cccs2)C1 (centres undefined),-0.8%,u
CCOC(=O)CCCCCC(=O)Nc1ccc2c(c1)C(=O)N([C@@H](C)CO)C[C@H](C)[C@H](CN(C)C(=O)Nc1ccc(C(F)(F)F)cc1)OCCCC[C@H](C)O2,1.8%,u
C[C@H]1Cn2cnc(C(=O)Nc3cccc(Cl)c3)c2C(=O)N1,0.0%,1.1%
C[C@@H]1Cn2cnc(C(=O)Nc3ccccc3)c2C(=O)N1,-3.3%,22.0%
C[C@@H](CO)NC(=O)c1nc[nH]c1C(=O)N[C@H](C)c1ccccc1,1.6%,-10.2%
C[C@H]1CN([C@@H](C)CO)C(=O)c2cc(-c3cccnc3)cnc2O[C@H]1CN(C)Cc1ccc(Oc2ccccc2)cc1,-2.0%,16.0%
CCC1NC(=O)c2cccnc2-n2c1nc1ccc(C)cc1c2=O (centres undefined),-2.6%,24.2%
COc1ccc(N2CCN(CCCn3cnc4c(SC)ncnc43)CC2)cc1,-4.5%,22.1%
CCCCN1C[C@H](CSC)[C@@H](CC(=O)Nc2ccc(Br)cc2)C1=O,0.3%,-24.3%
CCc1cc(-c2nnn(CCC3COCCO3)c2C(C)(C)O)ccc1-c1cn(CCc2c[nH]c3ccccc23)nn1 (centres undefined),0.2%,-7.2%
# Later entries:
SMILES,ClpP mod,gsp ag
CC1C(=O)N(Cc2cn(CC3CCCCC3)nn2)CCS(=O)(=O)N1Cc1ccc(-c2ccccc2)cc1 (centres undefined),-0.4%,-46.1%[inhibitor]
CC[C@@H](NCCCn1ccc(NC(=O)OCc2ccccc2)nc1=O)c1ccccc1,-1.8%,1.9%
COc1cccc(C#CC2=CC(=O)CC(C)(C)C2)c1,-0.3%,u
CCC(=O)N(C)C[C@@H]1Oc2ncc(Br)cc2C(=O)N([C@@H](C)CO)C[C@H]1C,-0.2%,-48.9%[inhibitor]
CC1(C)CC(=O)C=C(c2ccccc2-c2ccc3cc[nH]c3c2)C1=O,0.0%,u
O=c1c2ccccc2on1-c1ccccc1,-0.8%,u
C[C@@H]1CN([C@H](C)CO)C(=O)CCCn2nncc2CO[C@@H]1CN(C)C(=O)Nc1ccnc(N2CCOCC2)c1,u,6.0%
C[C@@H]1CN([C@H](C)CO)C(=O)CCCn2nncc2CO[C@H]1CN(C)C(=O)c1ccncc1,-0.5%,30.9%
COc1ncnc2c1ncn2CCCNCC(C)c1ccccc1 (centres undefined),-0.5%,-0.5%
c1ccc(COc2ncnc3c2ncn3CCCNCC(c2ccccc2)c2ccccc2)cc1,0.0%,2.3%
CC(=O)OCc1ccc(C2=CC(=O)CC(C)(C)C2=O)cc1,0.3%,-5.3%
CNC(=O)C[C@H]1C(=O)N(c2ccccc2)C[C@@H]1CSC,0.1%,7.9%
C=CCOc1ccc(C[C@H](N)C(=O)NC[C@H]2O[C@@H](n3ccc(N)nc3=O)[C@H](O)[C@@H]2O)cc1,1.1%,u
Cc1cccc(S(=O)(=O)N(C)C[C@H]2OCc3cn(nn3)CCCC(=O)N([C@@H](C)CO)C[C@@H]2C)c1,-0.3%,7.8%
CCCCN1C(=O)C(CC(=O)NCCCCc2ccccc2)CC(C(=O)N(C(C)C)C(C)C)=C1C (centres undefined),2.1%,-21.9%
C[C@@H]1CN([C@H](C)CO)C(=O)c2cc(C#CC(C)(C)O)cnc2O[C@@H]1CN(C)C(=O)C1CC1,-24.6%,-4.6%
C[C@H]1CN([C@@H](C)CO)C(=O)CCCn2nncc2CO[C@H]1CN(C)S(=O)(=O)c1ccc2ccccc2c1,-2.4%,10.0%
Cc1cn([C@H]2C[C@H](O)[C@@H](CNC/C=C/c3ccccc3[N+](=O)[O-])O2)c(=O)[nH]c1=O,-5.3%,-12.2%
COc1ccc([C@H]2C[C@H](O)[C@@H](n3cc(COC(=O)c4ccccc4)nn3)CN2CC2CCCCC2)cc1,-5.1%,u
C[C@@H]1CN([C@H](C)CO)C(=O)CCCn2cc(nn2)CO[C@H]1CN(C)S(=O)(=O)c1cccc(F)c1,-1.3%,-23.2%
Cc1nc(NC(=O)c2ccccc2)sc1-c1cc(C(=O)O)nn1Cc1ccccc1,-2.1%,10.9%
CCCCCCN1C[C@@H](n2cc(C3CC3)nn2)[C@H](O)C[C@@H]1c1ccc(Cl)cc1,0.2%,u
C[C@@H]1CN([C@@H](C)CO)C(=O)CCCn2nncc2CO[C@H]1CN(C)Cc1cccc2c1OCCCO2,-0.9%,25.7%
COc1ccccc1S(=O)(=O)N(C)C[C@H]1OCc2cnnn2CCCC(=O)N([C@H](C)CO)C[C@H]1C,-1.3%,0.0%
CCC(C)C(CO)NCCCn1ccc(NC(=O)OCc2ccccc2)nc1=O (centres undefined),-0.5%,u
COc1ccc(OC(=O)N(C)C[C@@H]2OCc3cn(nn3)CCCC(=O)N([C@@H](C)CO)C[C@H]2C)cc1,-0.3%,-1.9%
COc1cccc(-c2cc(N3CCN(C(=O)c4ccoc4)CC3)n3nc(-c4cccc(Cl)c4)cc3n2)c1,-24.4%,u
C[C@@H]1CN([C@@H](C)CO)C(=O)CCCn2nncc2CO[C@H]1CN(C)Cc1cccnc1,-1.0%,-38.8%[inhibitor]
